# Assay outcomes deposited in PubChem BioAssay by several laboratories.
# GALR2 agonist: GALR2 (human) receptor agonism; O43603; GALR2-expressing cells, agonist activation read-out; activation, %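 (tested at 5 µM)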; hit rate 0.48% among 140,000; AID 803;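 active = above mean plus 3 SD of all compounds, about 5% in these data, not always enough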;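 also: 0% = vehicle buffer wells and 100% = reference agonist at full effect; tested in CHO reporter cells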
# Target sequence (O43603 whole entry, looked up): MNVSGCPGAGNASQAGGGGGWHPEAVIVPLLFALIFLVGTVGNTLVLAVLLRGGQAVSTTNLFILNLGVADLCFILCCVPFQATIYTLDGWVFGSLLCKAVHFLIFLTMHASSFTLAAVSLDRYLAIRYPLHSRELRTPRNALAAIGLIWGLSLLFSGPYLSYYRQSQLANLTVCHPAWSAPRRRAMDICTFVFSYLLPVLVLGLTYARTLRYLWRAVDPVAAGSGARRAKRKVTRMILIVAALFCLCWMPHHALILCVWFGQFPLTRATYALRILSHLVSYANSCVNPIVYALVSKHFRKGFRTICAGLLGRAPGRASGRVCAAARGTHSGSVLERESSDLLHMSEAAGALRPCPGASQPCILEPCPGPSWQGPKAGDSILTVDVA
# Insulin prom inh: TRM-6 insulin promoter activity inhibition | TRM-6 cells (human fetal islet line), insulin promoter-eGFP reporter, imaging; reporter expression induced with tamoxifen | inhibition, % at 2 µM | hit rate 0.9% among 130,000;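 active = inhibition above the mean plus 3 SD, with well images judged a real hit on visual review, cut at about 60% in these data, passing the limit was not always enough; inconclusive = inhibition over the cutoff but images rejected on review; inactive = inhibition not above the cutoff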
# PKD1 kinase inh: blocks activity of human protein kinase D1. Q15139. hit rate 0.056% among 200,000. PKD1 kinase fluorescence polarization assay. inhibition, %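 (about 10 µM by stock and volumes)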;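 active = inhibition of 50% or more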;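 also: controls were vehicle for no effect and a reference inhibitor for full effect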
# HSV augment: increases HSV replication in cells | HSV replication augmentation in cells, fold increase | maximum fold increase | hit rate 0.005% among 220,000 | AID 1956;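 active = peak rise of 1.5-fold or more in the series; inconclusive = self-fluorescent or not available for retest; tested in PC3 cells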;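 also: first round at 10 µM; read as green reporter fluorescence; hits show the peak of a series up to 25 µM; 1 = signal of infected wells without compound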
# RGS16-Gao: RGS16-Galphao interaction regulator (human). hit rate 0.38% among 220,000. O15492+P09471. binding response (% of control), % at 10 µM. bead-based flow cytometry RGS16-Galphao binding, fluorescence; actives lie on both sides. AID 1441;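 active = below 25% or above 175%, edge rows of some plates excepted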;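 also: Galphao activated by GDP with aluminum fluoride before binding; 100% = wells without compound and 0% = beads without RGS; some results beyond the cut were filed as inactive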
# Target sequence (O15492 whole entry, looked up): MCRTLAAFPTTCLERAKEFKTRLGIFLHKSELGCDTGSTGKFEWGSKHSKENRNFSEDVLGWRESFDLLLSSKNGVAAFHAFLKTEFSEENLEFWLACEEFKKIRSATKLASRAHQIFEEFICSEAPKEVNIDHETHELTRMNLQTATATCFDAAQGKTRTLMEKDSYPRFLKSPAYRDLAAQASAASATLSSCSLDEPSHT
# Target sequence (P09471 whole entry, looked up): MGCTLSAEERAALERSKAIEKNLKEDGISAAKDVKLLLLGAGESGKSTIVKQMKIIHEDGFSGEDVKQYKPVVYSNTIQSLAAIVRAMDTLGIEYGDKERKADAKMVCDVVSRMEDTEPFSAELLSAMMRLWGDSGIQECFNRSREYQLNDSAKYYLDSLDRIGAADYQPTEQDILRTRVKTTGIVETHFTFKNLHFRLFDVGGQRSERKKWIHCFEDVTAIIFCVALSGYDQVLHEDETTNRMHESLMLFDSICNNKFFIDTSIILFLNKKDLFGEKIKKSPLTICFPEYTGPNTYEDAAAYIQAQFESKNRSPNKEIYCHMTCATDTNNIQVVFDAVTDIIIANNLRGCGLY
# Insulin prom inh cell count: further read-out of Insulin prom inh, marked with its call; normalized cell count, %; measured here: cell count, toxicity; reference of the scale not given here;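 cells exposed to compound for 48 h; stained nuclei by imaging scaled within each plate; lower means fewer cells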
# HSV augment primary fold: second read-out of HSV augment, no call of its own (marks repeat the call); fold increase; compound at 10 µM; measured here: primary screen fold increase 10 uM; tested in PC3 cells;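 GFP signal in the first replicate; 1 = infected wells without compound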
# An asterisk follows results filed as active; i = inactive; ? = inconclusive; . = not tested or not shown.
SMILES,GALR2 agonist,Insulin prom inh,Insulin prom inh cell count,PKD1 kinase inh,HSV augment,HSV augment primary fold,RGS16-Gao
COc1ccc(C(=O)NCCc2nnc(SCc3nc4ccccc4c(=O)[nH]3)n2C)cc1,-2.6,-21,139,-7,i,1.1,103
Cc1cc(C(=O)CSc2nnc(N)s2)c(C)n1CCc1ccc(Cl)cc1,-0.2,-85,81,-2,i,1,99
CCN1CCN(c2cc(N3CCc4ccccc4C3)c(F)cc2[N+](=O)[O-])CC1,-1.6,.,.,1,i,0.77,103
COc1ccc(NC(=O)CN2CCC(C)CC2)cc1,-2.4,-92,95,-2,i,0.86,107
O=C1c2ccccc2C(=O)N1CCCCN(C(=O)c1cccc([N+](=O)[O-])c1)c1ccc(Cl)cc1,-2.1,40,99,-8,i,0.87,103
COC(=O)c1sccc1NC(=O)/C=C/c1ccc(Cl)cc1,-0.8,.,.,2,i,0.95,100
O=C(O)c1nccnc1C(=O)Nc1ccc(S(=O)(=O)N2CCOCC2)cc1,.,.,.,.,i,1.2,104
Cc1cc(NC(=O)COC(=O)c2ccc(NS(=O)(=O)c3ccc(C)c(C)c3)cc2)no1,-1.1,0,87,5,i,1,99
COc1ccc(S(=O)(=O)n2nc(OC(=O)c3ccc(C)cc3)cc2N)cc1,-2.6,.,.,-7,i,0.82,94
Cc1ccc(CCC(=O)Nc2nccs2)o1,-1.6,.,.,-1,i,0.69,102
CCOC(=O)CSc1nc2cc(C(=O)N3CCC(C(N)=O)CC3)ccc2c(=O)n1-c1ccccc1,-2.0,0,131,0,i,0.91,105
CC(C)Nc1nc2ccccc2c(=O)[nH]1,.,.,.,9,i,1,109
Cc1cc(C)c(S(=O)(=O)Nc2ccc(O)cc2)cc1C,-0.5,-42,147,-12,i,0.63,81
CCOC(=O)[C@H]1CCC[C@@H](NS(=O)(=O)c2ccc(NC(C)=O)cc2)C1,-1.2,-54,25,0,i,0.99,68
Cc1cccc(CS(=O)(=O)Cc2ccc(C(=O)NCCN3CCCCC3C)o2)c1 (stereo unspecified),-2.7,-36,116,4,i,0.94,101
Nc1ccccc1SCC(=O)N1CCc2ccccc21,-2.5,.,.,-9,i,0.84,87
O=C(CSc1nc2ccccc2c(=O)n1NC(=O)Cc1ccccc1)NCc1ccccc1,-1.8,5,86,-2,i,1.1,109
Cc1ccccc1C(=O)NC(=S)Nc1ccc(Oc2ccc(Cl)cc2)cc1,-3.0,-13,96,2,i,1.2,123
N#CCc1c(C#N)c(N)nc(N2CCN(C=O)CC2)c1C#N,.,.,.,0,i,0.93,97
O=C(O)CCn1c(=O)sc2ccccc21,-3.0,.,.,10,i,0.96,92
C=CCNC(=O)c1ccc2c3n(nc2c1)-c1ccc(C)cc1CO3,.,.,.,.,i,0.5,103
COc1ccccc1N1C(=O)CC(N2CCc3ccccc32)C1=O (stereo unspecified),-0.2,-18,61,-4,i,1.2,-623
CC1=C(C(=O)OC2CCCC2)C(c2coc3ccccc3c2=O)C2=C(CCCC2=O)N1 (stereo unspecified),.,8,139,5,i,0.87,97
Cn1c(Cc2ccccc2)nnc1SCC(=O)Nc1ccccc1,.,.,.,1,i,1.1,118
COc1ccccc1CNC(=O)Cn1cccc1,-2.6,3,98,-1,i,1,94

# A second format for some results above:
# Second line of a record – GALR2 agonist, Insulin prom inh, Insulin prom inh cell count, PKD1 kinase inh, HSV augment, HSV augment primary fold, RGS16-Gao
> N#CCc1c(C#N)c(N)nc(N2CCN(C=O)CC2)c1C#N
 : ., ., ., 0, i, 0.93, 97
> O=C(O)CCn1c(=O)sc2ccccc21
 : -3.0, ., ., 10, i, 0.96, 92
> C=CCNC(=O)c1ccc2c3n(nc2c1)-c1ccc(C)cc1CO3
 : ., ., ., ., i, 0.5, 103
> COc1ccccc1N1C(=O)CC(N2CCc3ccccc32)C1=O (stereo unspecified)
 : -0.2, -18, 61, -4, i, 1.2, -623

# Following part:
SMILES,GALR2 agonist,Insulin prom inh,Insulin prom inh cell count,PKD1 kinase inh,HSV augment,HSV augment primary fold,RGS16-Gao
COc1ccc(S(=O)(=O)N2CCOC2CNC(=O)C(=O)NCc2ccco2)cc1OC (stereo unspecified),.,.,.,.,i,0.97,82
CCOc1ccc(CN2CCN(Cc3[nH]c4ccccc4c3C)CC2CCO)cc1 (stereo unspecified),.,-52,170,-1,i,0.8,107
Cc1nc(=O)c(-c2ccccc2)c(C)n1-c1ccccc1C(=O)O,-0.2,5,85,-1,i,0.98,104
COc1ccc(S(=O)(=O)N[C@@H](Cc2ccccc2)C(=O)N2CC[C@@]3(O)CCCC[C@H]3C2)cc1,-2.3,36,104,0,i,0.95,103
O=C(CSc1nc(NS(=O)(=O)c2ccccc2)cc(=O)[nH]1)Nc1ccc(Cl)cc1,.,.,.,-4,i,0.99,92
CCOc1ccccc1-c1nc(-c2cc3ccc(C)cc3[nH]c2=O)no1,1.5,-53,43,-5,i,0.74,86
O=C(c1ccc(Cl)cc1)c1cnc(Nc2ccccc2)s1,-0.8,50,112,-13,i,1,99
Fc1ccc(CSc2ccc3nnc(-c4cccs4)n3n2)cc1,-0.2,.,.,0,i,1,104
CCOc1cc(/C=N/NC(=O)CCn2nnc3ccccc32)ccc1O,.,.,.,.,i,0.84,101
O=C(NC(=S)Nc1cccc(Cl)c1N1CCCCC1)c1cccs1,-1.0,25,140,-4,i,0.8,109
Cc1ccc(Cl)c(NC(=O)COC(=O)c2ccccc2C(=O)c2ccc(Cl)c([N+](=O)[O-])c2)c1Cl,0.5,-53,29,19,i,0.52,121
CC1(C)C2([N+](=O)[O-])CN(CCO)CC1([N+](=O)[O-])CN(CCO)C2,-0.2,-165,119,-5,i,0.92,103
CC(=O)N(C)C1(c2nnnn2CCOC(=O)Nc2cccc3ccccc23)CCCC1,-2.1,12,115,2,i,1.1,104
Cc1cccc(NC(=S)NNC(=O)c2ccco2)c1,-2.7,-12,102,-10,i,0.9,111
NNC(=S)Nc1ccccc1Cl,.,6,117,-5,i,0.77,97
CC(C)(C)NC(=O)NC(=O)CN1CCN(C(c2ccccc2)c2ccccc2)CC1,.,.,.,-4,i,1,103
NC(=S)Nn1c(CCC(=O)O)ccc1-c1ccccc1,0.0,3,58,-6,i,1,86
COc1ccccc1-c1nnc(-c2ccc(N3CCOCC3)cc2)o1,-1.9,38,92,-7,i,0.91,.
O=C(NC1CC1)C1=C[C@@H](c2ccc3c(c2)OCO3)C[C@@H](OCc2ccc(CO)cc2)O1,.,.,.,5,i,0.87,100
Cc1ccc(Sc2ccc(NC(=O)CCl)cc2)c(C)c1,0.2,54,57,-5,i,1,24
O=C(Nc1nc(-c2cc(Cl)sc2Cl)cs1)c1ccccc1,-2.7,-38,76,-6,i,0.99,103
Cc1cc(N2CCN(c3nc(N4CCOCC4)nc4ccccc34)CC2)c2ccccc2n1,-1.8,0,88,-4,.,.,.
O=C(c1cccc(S(=O)(=O)N2CCCC2)c1)c1cccc(S(=O)(=O)N2CCCC2)c1,-2.2,0,113,8,i,0.96,105
COc1ccc(C(=O)N2CCN(Cc3cc(OC)c(O)c(OC)c3)CC2)cc1OC,-3.1,.,.,0,i,1,103
CCOc1ccc2nc(SCC(=O)Nc3ncccn3)[nH]c2c1,-1.8,-14,148,-4,.,.,100
# The results go on.
SMILES,GALR2 agonist,Insulin prom inh,Insulin prom inh cell count,PKD1 kinase inh,HSV augment,HSV augment primary fold,RGS16-Gao
O=C(Nc1ccc(Oc2ccccc2)cc1)c1cnc2n(c1=O)CCS2,-1.4,.,.,-2,i,0.8,75
O=C(NNc1cccc(Cl)n1)Nc1ccc(Cl)cc1,-1.1,-5,77,-11,i,1.1,104
COc1ccccc1N1CCN(C(CNC(=O)C2CCCCC2)c2cccnc2)CC1 (stereo unspecified),-1.3,10,154,-16,i,0.9,101
CC#CC[N+](C)(C)CCCCCC,.,.,.,.,i,1.3,105
COC(=O)c1ccc(CN(C)S(=O)(=O)c2ccc(C)cc2)o1,.,.,.,.,i,0.9,103
COc1ccc(NC(=O)c2cc(Br)ccc2Cl)c([N+](=O)[O-])c1,.,18,77,-1,i,1,90
Cn1c(=O)c2c(nc(CN3CCN(Cc4ccccc4)CC3)n2Cc2ccccc2)n(C)c1=O,-1.8,.,.,-12,i,0.92,99
O=C(NCCN1CCOCC1)C1CCC(=O)N1C1CCCCC1 (stereo unspecified),-3.3,38,86,-4,i,0.82,101
CCC(C)c1ccc(O)c(NC(=O)c2cncc(Br)c2)c1 (stereo unspecified),0.1,-328,72,-1,i,0.75,95
O=C(N/N=C/c1ccc(OCc2cnc(Cl)s2)cc1)c1ccncc1,.,41,64,-3,?,.,103
NC(=NCCc1ccccc1)NS(=O)(=O)c1cccs1,.,20,130,0,i,1.1,102
CCOc1ccc(NC(=O)C(=O)N/N=C/c2cccnc2)cc1,.,.,.,.,i,0.89,105
Cn1c(=O)c(C(=O)NCCO)c(O)c2ccccc21,-0.7,-11,139,-6,i,0.75,99
Cc1ccc(NC(=S)c2nc3ccccc3s2)cc1,-2.9,7,74,1,i,1,103
Cc1ccc(CCP(=O)(O)CN2CCOCC2)cn1,-1.7,49,44,-6,i,1.1,97
Cc1ccc(C(C(=O)NCc2ccco2)N(C(=O)Cc2cccs2)c2cccnc2)cc1 (stereo unspecified),.,-110,16,3,i,1,107
CCOc1ccc(-c2ccc(SCC)nn2)cc1,.,64,135,-5,i,1,98
CC1(C)OC(=O)N(CCc2ccccc2)C1(C)O (stereo unspecified),-2.6,-28,125,-4,i,0.9,115
CCCCCCSC1=C(C#N)C(=O)NC2(CCCCC2)S1,-0.3,-124,100,-1,i,0.95,74
COc1ccc(C(=O)N(c2ccccc2)C2C=CS(=O)(=O)C2)cc1 (stereo unspecified),-1.4,-36,158,-1,i,0.96,95
Cc1cnc(NC(=O)C2(c3ccccc3)CC2)s1,.,.,.,-3,i,0.9,102
COC(=O)C1(C(F)(F)F)N=C2Sc3ccccc3N2C(N2CCOCC2)=N1 (stereo unspecified),-0.6,.,.,-2,i,0.81,102
COc1ccc(-c2nn(-c3ccccc3)cc2/C=C/C(=O)NCCCn2ccnc2)cc1OC,.,.,.,-4,i,0.73,94
N=c1c2c3c(sc2ncn1CCN1CCOCC1)CCCC3,-4.2,50,69,6,i,1.1,98
C=C(C)c1cccc(C(C)(C)NC(=O)Nc2cc(C)ccc2OC)c1,-2.7,-20,130,-3,i,0.9,102

# Profiles, quoted from the list. Order of screens: GALR2 agonist, Insulin prom inh, Insulin prom inh cell count, PKD1 kinase inh, HSV augment, HSV augment primary fold, RGS16-Gao
# Cc1cnc(NC(=O)C2(c3ccccc3)CC2)s1 is entered as ., ., ., -3, i, 0.9, 102
# COc1ccc(-c2nn(-c3ccccc3)cc2/C=C/C(=O)NCCCn2ccnc2)cc1OC is entered as ., ., ., -4, i, 0.73, 94

# New compounds follow:
SMILES,GALR2 agonist,Insulin prom inh,Insulin prom inh cell count,PKD1 kinase inh,HSV augment,HSV augment primary fold,RGS16-Gao
Cc1nn(C)c(Cl)c1C(=O)NCC(=O)Nc1ccc(C(C)C)cc1,.,.,.,0,i,1,99
CCOc1ccc(N=C2NC(=O)S/C2=C\c2ccc(Cl)cc2)cc1,-4.6,-19,92,-4,i,0.88,101
Cc1onc(-c2c(F)cccc2Cl)c1C(=O)OCC(=O)c1c[nH]c2ccccc12,.,.,.,.,i,0.97,90
COc1ccc(CCNC(=O)Cn2cccc2C(=O)c2ccccc2C)cc1OC,-1.9,-72,100,-9,i,1.1,96
CCOC(=O)c1cc(OC(=O)c2ccccc2OC)n(-c2ccccc2)n1,-0.7,10,140,0,i,1,94
O=C(Cn1cnc2c(nnn2Cc2ccc(Cl)cc2)c1=O)N1CCCc2ccccc21,-1.1,-324,80,1,i,1,45
O=C(Oc1ccc2ccc(=O)oc2c1)N1CCOCC1,-1.6,-57,89,-4,.,.,110
COc1ccc(S(=O)(=O)N2CCCCC2)cc1,-3.2,35,156,6,i,1,103
O=C(CN1CCN(c2ccccc2O)CC1)NC(=O)NC1CCCC1,.,33,120,2,i,0.99,104
Cc1cc(C)nc(SCC(=O)c2ccc(O)cc2O)n1,-1.7,.,.,-2,i,0.95,100
Cc1cccc(C(=O)NNC(=O)c2ccc(F)cc2)c1,-1.1,42,59,-3,i,0.89,59
Cc1ccc(-c2cc(-c3ccccc3)c(C#N)c(N)n2)o1,-0.3,-25,85,6,i,1.3,87
O=C(NCc1cccs1)c1cccn2c(=O)c3sccc3nc12,.,.,.,-4,i,0.83,100
CCCCCc1cc(=O)oc2c(C(CCN3CCCC3)c3ccc(N(C)C)cc3)c(OC)cc(OC)c12 (stereo unspecified),.,.,.,.,i,0.56,92
CCOC(=O)C1(CCCc2ccccc2)CCN(Cc2cnn(C)c2)CC1,.,.,.,-4,i,0.83,101
CCC(C)N1C(=O)N(C)C2NC(=O)NC21 (stereo unspecified),.,.,.,-4,i,1,102
